# Rango-impB inh = prevents formation of the Rango-importin beta complex; Potency, µM (highest dose often 92.2 µM), for the others: at the highest dose inhibition of complex formation; Rango CFP/YFP FRET sensor + importin beta, 45 min; AID 540263; actives 0.031% (n = 340,000); active = rising FRET ratio curve, often small or poorly fitted; inconclusive = mostly compound fluorescence or quenching in the first reads; inactive = flat curves in all reads;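 further: potency means the concentration at half of the fitted maximal effect; 0% = DMSO wells and 100% = buffer wells lacking importin beta; nearly all actives have a fitted effect of over 15% in size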
#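 Inhibition scored from the CFP 486 nm/YFP 530 nm FRET ratio 45 min after adding 0.125 microM importin beta to 50 nM Rango biosensor preincubated 5 min with compound (room temperature, PBS with DTT, Tween-20, BSA). No-importin wells as positive control.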
# Rango release inh = inhibitors of RanGTP-induced Rango-importin beta complex dissociation | Biochemical FRET Rango-importin beta, RanGTP-induced dissociation | Potency, µM (highest dose often 46.1 µM), for the others: top-dose activity change, negative = inhibition | actives 0.071% (n = 340,000); active means falling FRET ratio curve, often poorly fitted, with flat reads before Ran was added; inconclusive means other falling curves, or compound fluorescence or quenching; inactive means flat or rising ratio curve;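 further: potency means the concentration at half of the fitted maximal effect; % of control where 0% means no effect; nearly all actives have a fitted effect of over 45% in size; -100% = wells without RanGTP and RCC1; the record marks most hits as doubtful in a second field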
#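 Rango (0.1 uM)–importin beta (0.25 uM) complex; RanGTP-RCC1 trigger; 45 min RT; CFP/YFP FRET read.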
# miR-21 reporter = miR-21 reporter, rising signal | HeLa miR-21 FLuc reporter, luciferase, 48 h | 340,000 tested, under 10 active | Potency, µM (doses to about 38.3 µM), inactives show top-dose reporter change, positive = more light | AID 2288; active = well fitted rising curve with a large enough effect; inconclusive = small, poorly fitted or top-dose-only effect; inactive = no such curve, though single readings can be large or run the other way;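 further: % of control where 0% means no effect; miR-21 action dims this reporter so a rising signal means less miR-21 action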
#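 Compounds were titrated across several concentrations (up to approximately 40 uM) and incubated 48 hours with HeLa miR-21-FLuc reporter cells (miR-21 target sequence downstream of FLuc, endogenous miR-21). Readout was firefly luciferase luminescence after lytic detection reagent.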
# GLA inh pH 4.5 = blocks human alpha-galactosidase A at pH 4.5; P06280; purified enzyme, 4-MU-alpha-Gal fluorescence, pH 4.5; activity change, negative = inhibition, % at 105 µM; 230,000 tested, under 10 active; AID 1467; inconclusive = small, poorly fitted or top-dose-only inhibition, or a rising curve; inactive = flat fitted curve, though single readings scatter; no compound was filed as active;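 further: 0% = full activity with enzyme and -100% = basal without enzyme; dose as in the result columns while the protocol names 77 µM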
# Target sequence (P06280 whole entry, looked up): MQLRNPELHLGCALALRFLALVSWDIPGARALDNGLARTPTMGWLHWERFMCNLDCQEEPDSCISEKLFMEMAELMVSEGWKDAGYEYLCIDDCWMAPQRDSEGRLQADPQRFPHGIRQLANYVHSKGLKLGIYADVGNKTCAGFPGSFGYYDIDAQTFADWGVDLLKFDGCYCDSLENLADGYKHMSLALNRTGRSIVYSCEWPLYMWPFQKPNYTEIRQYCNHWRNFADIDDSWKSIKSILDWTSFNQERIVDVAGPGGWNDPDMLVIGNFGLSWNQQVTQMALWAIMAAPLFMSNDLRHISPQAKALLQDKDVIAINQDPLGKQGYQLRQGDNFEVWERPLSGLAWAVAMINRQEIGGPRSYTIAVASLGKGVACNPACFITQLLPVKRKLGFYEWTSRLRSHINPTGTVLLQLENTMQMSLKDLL
# * = called active by the depositor; ? = inconclusive; . = no result given. A portion of the library; count on the stated rates, not on these rows.
# The opening 5 entries (preview)
canonical_smiles	Rango-impB inh	Rango release inh	miR-21 reporter	GLA inh pH 4.5
Cc1ccc(CNC(=S)Nc2ccc(OC(F)F)cc2C)cc1	-3.3%	22.1%	-3.8%	-5.7
O=C(COC(=O)c1cc(S(=O)(=O)N2CCCCC2)ccc1N1CCOCC1)NCCc1ccc(F)cc1	2.8%	19.0%	-3.5%	-11.3
O=C(NCc1ccco1)C(=S)N1CCCC1	-1.0%	-4.2%	0.2%	0.5
CCOC(=O)c1ccc(NC(=S)N(CCCN2CCN(CC)CC2)Cc2ccco2)cc1	1.3%	-7.0%	-3.1%	2.5
Cn1cc(Br)c(NC(=O)/C=C/C(=O)O)n1	-2.7%	-23.1%	15.7%	-3.2

# This part in full, from the first entry:
canonical_smiles	Rango-impB inh	Rango release inh	miR-21 reporter	GLA inh pH 4.5
Cc1ccc(CNC(=S)Nc2ccc(OC(F)F)cc2C)cc1	-3.3%	22.1%	-3.8%	-5.7
O=C(COC(=O)c1cc(S(=O)(=O)N2CCCCC2)ccc1N1CCOCC1)NCCc1ccc(F)cc1	2.8%	19.0%	-3.5%	-11.3
O=C(NCc1ccco1)C(=S)N1CCCC1	-1.0%	-4.2%	0.2%	0.5
CCOC(=O)c1ccc(NC(=S)N(CCCN2CCN(CC)CC2)Cc2ccco2)cc1	1.3%	-7.0%	-3.1%	2.5
Cn1cc(Br)c(NC(=O)/C=C/C(=O)O)n1	-2.7%	-23.1%	15.7%	-3.2
O=c1c(-c2ccc(Br)cc2)coc2c(CN3CCCCC3)c(O)ccc12	1.1%	7.7%	-0.7%	.
CC(=O)C(C(c1ccccc1)N1CCCc2ccccc21)N1CCOCC1 (stereo unspecified)	-0.1%	-12.2%	.	.
COc1cc(OC)cc(C(=O)NNC(=O)c2cc(S(=O)(=O)N3CCOCC3)ccc2F)c1	4.5%	-0.1%	.	.
CCN(CCn1cccn1)Cc1cn[nH]c1-c1ccc(-c2ccccc2)cc1	4.2%	27.8%	-38.0%	-1.7
N#C/C(=C/c1cn(-c2ccccc2)nc1-c1cccc(OCc2ccc(F)cc2)c1)C(=O)NCCCn1ccnc1	?	7.0%	?	-8.9
O=C1N[C@H](Cc2ccccc2)COC(=O)[C@@H](Cc2ccc(F)cc2)C/C=C\C[C@H]1CC(=O)N(CCO)Cc1ccccc1	0.7%	-10.3%	.	.
COc1ccc(C2=[N+]([O-])C(C)(C)C(c3ccccc3)=N2)cc1	5.3%	-7.1%	-15.3%	-5.1
Cc1cccc(N/C(N)=N/c2nc(C)cc(=O)[nH]2)c1	1.9%	-3.6%	-3.6%	3.9
O=C(NCc1ccco1)Nc1cccc2ccccc12	-3.2%	11.9%	.	.
COc1ccc2c(Cl)c(C(=O)NCc3ccco3)sc2c1	-4.0%	1.6%	-52.5%	-7.6
Cc1nn(-c2ccccc2)c(C)c1C(=O)OCC(=O)Nc1cccc(S(N)(=O)=O)c1	-1.8%	?	.	.
Cc1ccc(S(=O)(=O)NCC2CCC(C(=O)NCCCN3CCOCC3)CC2)cc1 (stereo unspecified)	-1.5%	-5.0%	-4.6%	-1.7
CCOC(=O)Cc1csc(NC(=O)C(C)(C)CC)n1	1.7%	-4.4%	-40.2%	5.5
Cc1cc(NC(=O)CSCCc2ccncc2)no1	-1.3%	27.3%	-9.5%	6.6
O=C(Cc1ccc(NC(=O)C2CCCN(C(=O)CCc3ccccc3)C2)cc1)Nc1ccc(C(=O)N2CCOCC2)cc1 (stereo unspecified)	5.1%	-14.9%	.	.
Cc1nc(Cl)cc(CS(=O)(=O)c2ccc(Cl)cc2)n1	1.8%	10.8%	0.3%	6.9
CCc1nc(SCC(=O)NC2CC2)c2c(C)c(C)sc2n1	1.4%	37.5%	-0.7%	.
COc1cc(OC)cc(C(=O)NC(C(=O)NNC(=O)c2ccc(C)cc2)C(C)C)c1 (stereo unspecified)	-1.2%	1.6%	.	.
O=C(c1cccc(F)c1)N1CCN(Cc2ccco2)CC1	-0.6%	1.2%	-6.7%	5.8
O=c1cc(CNC2CCCCC2)c2ccccc2[nH]1	0.0%	9.1%	-7.3%	9.7
COc1ccccc1CNC(=O)Cn1cc2c(n1)CCCC2	12.1%	-9.1%	-7.7%	0.5
COc1cccc(CNC(=O)c2ccc(OCC(=O)N3CCOCC3)c(OC)c2)c1	2.5%	0.2%	.	.
COC(=O)C1(O)CC(C(C)C)=NN1C(=O)c1ccc(Cl)cc1 (stereo unspecified)	3.9%	32.1%	2.2%	-0.3
COC(=O)CC1C(=O)NCCN1Cc1cn(-c2ccc(C)cc2)nc1-c1cccc(C)c1 (stereo unspecified)	-0.6%	5.5%	-14.4%	3.5
Cc1c(C)c(C)c(S(=O)(=O)N2CCNCC2)c(C)c1C	0.2%	7.3%	2.8%	-2.1
OC(Cn1nnc2ccccc21)Cn1c(C(F)(F)F)nc2ccccc21 (stereo unspecified)	-1.8%	8.7%	-6.6%	-0.6
O=C(CS(=O)(=O)c1ccccc1)Nc1nccs1	-0.5%	2.6%	-0.1%	.
O=c1[nH]c2ccccc2n1Cc1ccccc1	-1.7%	-13.3%	-0.1%	6.3
CCC(=O)N(CC(=O)Nc1sc(C)c(C)c1C(N)=O)Cc1ccc(F)cc1	-1.6%	15.7%	0.4%	-1.1
CCOc1ccc(Br)cc1S(=O)(=O)Nc1ccc(C(=O)OC(C)C(=O)N(C)c2ccccc2)cc1 (stereo unspecified)	0.7%	-4.4%	-0.7%	-2.9
CCCCN(C(=O)Cc1ccc(S(=O)(=O)N2CCOCC2)s1)c1c(N)n(CC(C)C)c(=O)[nH]c1=O	?	?	.	.
CN(Cc1ccc(Cl)c(Cl)c1)C(=O)CN1C(=O)NC2(CCCC2)C1=O	-0.1%	8.8%	.	.
CC1CCc2c(sc(NC(=O)c3ccc(Cn4cc(Br)cn4)o3)c2C(N)=O)C1 (stereo unspecified)	?	-13.0%	-8.6%	-13.4
CC(=O)Nc1ccc(NC(=O)c2ccc(C3SCC(=O)N3CCc3ccccc3)cc2)cc1 (stereo unspecified)	3.1%	1.6%	16.5%	2.0
CCCCC(=O)NC(c1ccc(Cl)cc1Cl)c1ccc2cccnc2c1O (stereo unspecified)	0.7%	1.5%	16.9%	.

# Compound profiles, as listed above.
# Shown for COC(=O)C1(O)CC(C(C)C)=NN1C(=O)c1ccc(Cl)cc1 (stereo unspecified) = Rango-impB inh = 3.9%; Rango release inh = 32.1%; miR-21 reporter = 2.2%; GLA inh pH 4.5 = -0.3
# Shown for O=c1cc(CNC2CCCCC2)c2ccccc2[nH]1 = Rango-impB inh = 0.0%; Rango release inh = 9.1%; miR-21 reporter = -7.3%; GLA inh pH 4.5 = 9.7

# Going on with the list.
canonical_smiles	Rango-impB inh	Rango release inh	miR-21 reporter	GLA inh pH 4.5
CCOc1ccccc1C(c1c(O)nc(SC)[nH]c1=O)c1c(O)nc(SC)[nH]c1=O	-1.1%	24.9%	.	.
Cc1ccc(S(=O)(=O)N2CN(CC3CCCO3)c3nc4ccccc4nc32)cc1 (stereo unspecified)	?	-4.3%	-7.6%	.
Nn1c(COc2ccc(Cl)cc2)nc2ccccc2c1=O	2.8%	6.9%	-73.0%	-2.9
CCCN(CCC)CCCNC(=O)CC(C(=O)N1CCc2ccccc21)n1ccnc1 (stereo unspecified)	-1.1%	-12.2%	-2.0%	4.1
COc1ccc(NC(=S)N2CCC(NC(=O)c3cccc(F)c3)CC2)cc1	0.1%	2.3%	-0.2%	.
O=C(NCc1ccccn1)c1cccc(NS(=O)(=O)c2ccc(Br)cc2)c1	7.2%	-5.8%	.	.
O=C(/C=C/c1ccccc1)OCN1C(=O)c2ccccc2C1=O	3.5%	2.2%	2.5%	.
O=C(NCc1ccco1)C(=O)NCC1OCCN1S(=O)(=O)c1ccc(F)cc1 (stereo unspecified)	-2.7%	?	-9.4%	-5.5
COc1cc2c(cc1OC)CN(C(=O)c1cc(S(=O)(=O)N3CCOCC3)ccc1C)CC2	-2.8%	-0.4%	.	.
COc1cc(NC(=O)Nc2cccc(Cl)c2)c(OC)cc1NC(=O)CN1CCCCC1	3.4%	-11.6%	-2.1%	-13.2
N#Cc1ccc(OC(=O)Cc2ccsc2)cc1	-1.1%	-15.0%	-1.8%	.
CCCn1c(C)cc(C(=O)CSc2nnc3n(CCC)c(=O)c4ccccc4n23)c1C	.	.	-2.6%	6.3
COC(=O)c1sccc1NC(=S)N1CCCC(C)C1 (stereo unspecified)	0.6%	1.0%	-6.3%	-2.2
CCOc1ccc(C2c3[nH]c4ccccc4c3CCN2C(=O)Cn2cncn2)cc1 (stereo unspecified)	4.2%	2.9%	11.2%	-3.1
O=C(NC1CC2CCCC(C1)N2C(=O)Nc1ccccc1)C1CC1 (stereo unspecified)	3.4%	0.1%	0.3%	.
C=C(C)CN1C(=O)C2(OCCO2)c2cc(Br)ccc21	-2.9%	11.0%	.	.
Cc1cc(C)n2nc(C(=O)OCC(=O)c3cc(C)n(C)c3C)nc2n1	?	?	-4.1%	-2.4
COCCOC(=O)C1=C(C)N=C2SCCC(=O)N2C1c1ccc(OC(=O)c2ccco2)cc1 (stereo unspecified)	0.1%	2.4%	-0.2%	8.3
COC(=O)C1=C(C)NC(C)=C(C(=O)OC)C1C(=O)OCc1nc2cc(C(=O)OC)ccc2c(=O)[nH]1	-1.3%	-16.7%	.	.
Cc1cccc(OCc2nnc(-c3ccc(F)cc3)o2)c1	-0.8%	1.3%	.	.
CCc1ccccc1N1CCN(S(=O)(=O)c2cc(OC)ccc2OC)CC1	-0.6%	0.8%	-1.3%	-7.1
CCOc1ccc(C(OC(=O)c2ccco2)C(=O)NCc2ccc(C)cc2)cc1 (stereo unspecified)	-1.3%	0.1%	-16.4%	-3.7
O=C(Nn1c(O)c(C=C2N=c3ccccc3=N2)sc1=S)c1ccc(Cl)cc1	2.3%	-6.5%	-1.0%	-7.6
CCOc1cc(/C=C2\N=C(C)OC2=O)cc(Br)c1OCCc1ccccc1	2.3%	5.6%	-11.8%	2.2
CC1=C(C(=O)N(C)CCC#N)C2(CCCCC2)OC1=O	5.2%	-20.1%	-0.3%	-5.3
Nc1ncnc2nc(SCCN3CCCCC3)[nH]c12	-5.4%	2.3%	-5.1%	4.4
O=C(CC1C(=O)NCCN1C(=O)Nc1ccc(Cl)cc1)Nc1ccc(F)cc1 (stereo unspecified)	3.3%	26.1%	-21.4%	0.1
Fc1c(F)c(C(F)(F)F)c(F)c(F)c1N1CCN(c2ccc3nnc(C(F)(F)F)n3n2)CC1	-1.4%	?	1.2%	1.6
O=C(c1cc2n(n1)C(C(F)(F)F)CC(c1ccc(F)cc1)N2)N1CCCC1 (stereo unspecified)	-4.1%	3.2%	-2.7%	-8.3
N=C1C(c2nc3ccccc3s2)=C(O)CN1C1CCC(O)CC1 (stereo unspecified)	-3.1%	-9.8%	-20.4%	-3.2
COC(=O)c1cc(OC)c(OC)c(OC)c1NC(=O)c1ccc(S(=O)(=O)N(C)C)cc1	-0.1%	8.0%	-3.7%	-7.4
COc1ccc(S(=O)(=O)N(CC(=O)NCC2CCCO2)C2CCCCC2)cc1OC (stereo unspecified)	-1.2%	-13.4%	0.5%	.
CCn1c(SCC(=O)N2CCOCC2)nc2c(c1=O)SC(C)C2 (stereo unspecified)	-6.0%	11.7%	-7.3%	-21.0
COc1ccccc1NC(=O)CSc1nnc(-c2ccccn2)o1	-1.8%	19.9%	-49.0%	.
O=C(CCCc1nc(-c2ccc(Cl)cc2)no1)N1CCOCC1	-3.4%	1.0%	1.3%	1.9
COc1cc(/C=C/C(=O)O)cc(OC)c1O	-6.6%	-8.2%	.	.
O=c1nccc(N/N=C/c2ccccc2O)[nH]1	-0.6%	-8.0%	-26.3%	.
CN(C)CCN(C(=O)c1ccc(S(=O)(=O)N(C)c2ccccc2)cc1)c1nc2cc3c(cc2s1)OCO3	-0.9%	0.0%	-19.9%	.

# Screening data as filed in PubChem BioAssay.
